HNF4A DNA FP: change in binding of human HNF4 alpha to DNA | 360,000 tested, 0.3% active | P41235 | AID 1224865 | activity change, % at 10 µM | HNF4a-FITC DNA binding, fluorescence polarization, 1 h; in the data active = activity change above about 30%, passing the limit was not always enough;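 note: controls were the assay level and a saturating level of protein; the project sought stronger binding though the title names inhibitors; some compounds called inactive have numbers as strong as hits; positive values seem to mean higher polarization but the record does not say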
Target sequence (P41235 whole entry, looked up): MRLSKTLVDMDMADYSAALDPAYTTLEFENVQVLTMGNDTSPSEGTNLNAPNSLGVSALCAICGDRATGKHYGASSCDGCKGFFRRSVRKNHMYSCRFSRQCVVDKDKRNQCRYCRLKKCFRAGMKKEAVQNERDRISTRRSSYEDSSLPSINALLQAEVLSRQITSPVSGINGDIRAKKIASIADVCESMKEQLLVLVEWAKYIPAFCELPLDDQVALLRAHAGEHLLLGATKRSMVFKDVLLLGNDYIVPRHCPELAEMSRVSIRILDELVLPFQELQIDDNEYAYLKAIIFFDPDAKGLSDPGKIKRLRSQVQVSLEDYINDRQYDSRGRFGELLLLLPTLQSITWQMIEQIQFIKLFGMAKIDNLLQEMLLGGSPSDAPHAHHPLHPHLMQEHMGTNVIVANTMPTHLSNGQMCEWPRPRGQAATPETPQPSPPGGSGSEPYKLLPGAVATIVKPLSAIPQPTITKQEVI
FGF22 binding: shifts melting point of recombinant human FGF22 | recombinant FGF22 thermal shift, SYPRO orange fluorescence; percent of sucrose octasulfate shift, DMSO zero | 340,000 tested, 1.5% active | calls only at 9.99 µM | Q9HCT0;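 active = melting point raised past a set limit in the mean and every replicate; three in four hits are not shown here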
Target sequence (Q9HCT0 whole entry, looked up): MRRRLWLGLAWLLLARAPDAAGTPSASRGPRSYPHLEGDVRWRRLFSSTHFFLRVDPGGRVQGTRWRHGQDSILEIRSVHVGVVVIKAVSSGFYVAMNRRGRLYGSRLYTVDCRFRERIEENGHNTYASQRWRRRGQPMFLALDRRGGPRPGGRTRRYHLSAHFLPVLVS
* = called active by the depositor; i = inactive; / = not tested or not shown. Not all compounds are listed; count on the stated rates, not on these rows.

Preview (6 entries):
SMILES	HNF4A DNA FP	FGF22 binding
O=C(CC[C@H]1O[C@@H](n2ccc(=O)[nH]c2=O)[C@H](O)[C@@H]1O)N[C@H](Cc1ccccc1)C(=O)NCc1ccc2c(c1)OCO2	0.3	i
COc1cc(CNc2nc3ccccc3n2Cc2ccccc2)ccc1O	-0.8	i
CCOC(=O)C(=O)N(C)c1c(CC)nc2c(OCc3cc(Cl)cc(Cl)c3)cccn12	2.5	i
COc1ccc(CN2C[C@H](O)COC[C@@H]3O[C@H](CC(=O)NCc4ccncn4)CC[C@H]32)cc1	-3.8	i
CC(=O)Nc1ccc(-c2ccnc3c2CC(C)(C(=O)Nc2ccc(F)c(Cl)c2)O3)cc1 (stereo unspecified)	5.4	i
CC1(C(=O)NS(=O)(=O)C2CC2)CCN(C(=O)CSc2ccccc2)C1 (stereo unspecified)	-2.6	i

Main list, previewed entries included:
SMILES	HNF4A DNA FP	FGF22 binding
O=C(CC[C@H]1O[C@@H](n2ccc(=O)[nH]c2=O)[C@H](O)[C@@H]1O)N[C@H](Cc1ccccc1)C(=O)NCc1ccc2c(c1)OCO2	0.3	i
COc1cc(CNc2nc3ccccc3n2Cc2ccccc2)ccc1O	-0.8	i
CCOC(=O)C(=O)N(C)c1c(CC)nc2c(OCc3cc(Cl)cc(Cl)c3)cccn12	2.5	i
COc1ccc(CN2C[C@H](O)COC[C@@H]3O[C@H](CC(=O)NCc4ccncn4)CC[C@H]32)cc1	-3.8	i
CC(=O)Nc1ccc(-c2ccnc3c2CC(C)(C(=O)Nc2ccc(F)c(Cl)c2)O3)cc1 (stereo unspecified)	5.4	i
CC1(C(=O)NS(=O)(=O)C2CC2)CCN(C(=O)CSc2ccccc2)C1 (stereo unspecified)	-2.6	i
COC(=O)[C@@]12C[C@@H](CC(=O)NCc3ccc(C)o3)C(=O)N(Cc3ccccc3)C1=CCC(C)(C)C2	1.2	i
CCCNC(=O)C1(C)CCCN(C(=O)/C=C/c2ccccc2)C1 (stereo unspecified)	-0.9	i
CC(=O)NC(c1ccc(N(C)C)cc1)c1cc(Cl)c2cccnc2c1O (stereo unspecified)	0.7	i
COc1ccc(C(=O)NCC2(c3ccc(OC)c(OC)c3)CCCC2)cc1OC	-3.2	i
COc1ccc(NC2CCCN(C(=O)COc3ccc(C(C)=O)cc3)C2)cc1 (stereo unspecified)	3.9	i
COc1ccc(CN2C[C@@H](CO)O[C@@H](n3cnc4c(N5CCN(CCO)CC5)ncnc43)C2)cc1	2.6	i
Cc1ccc(S(=O)(=O)N2c3ccccc3OC(C(=O)OC(C)(C)C)(C(=O)OC(C)(C)C)C2CC(=O)c2ccccc2)cc1 (stereo unspecified)	2.0	i
CCc1nc2c(OCc3ccc(F)cc3)cccn2c1N(C)C(=O)c1ccncc1	-1.0	i
CCCCNC(=O)C(NC(=O)Cc1cc(OC)cc(OC)c1)C(=O)c1ccccc1 (stereo unspecified)	-3.1	i
CN(C)c1ccc(CC(=O)N2CCCCC2c2cc(C(=O)Nc3cccc(C#N)c3)no2)cc1 (stereo unspecified)	4.2	i
CCCCN1C[C@H](c2ccc(Br)cc2)[C@@H](CC(=O)Nc2ccc(Br)cc2)C1=O	0.5	i
O=C(/C=C/[C@H]1O[C@@H](n2cnc3c(NC(=O)c4ccccc4)ncnc32)[C@H](O)[C@@H]1O)NCc1cccs1	1.5	i
CC1(C(=O)NCc2ccccc2)Cc2c(-c3ccc4c(c3)OCO4)ccnc2O1 (stereo unspecified)	-1.5	i
CCCCNC(=O)C1(C)CCCCCN1Cc1cccc2c(OC)cc(C(=O)OCC)cc12 (stereo unspecified)	-1.9	i
COC1=CC(=O)c2nc(Cl)ccc2C1=O	3.1	i
O=C1C(=Cc2ccccc2[N+](=O)[O-])Cc2ccccc21	-0.6	i
COc1ccc(CN(C)C(=O)[C@H]2O[C@@H](n3cnc4c(N)ncnc43)[C@H](O)[C@@H]2O)cc1OC	0.1	i
COc1ccc(Cl)cc1-c1noc([C@@H]2O[C@H](CO)[C@H](O)[C@H](O)[C@H]2O)n1	-0.1	i
CC1(C(=O)NS(=O)(=O)c2ccccc2)CCN1C(=O)CC1CC1 (stereo unspecified)	-1.2	i
Going on with the list:
SMILES	HNF4A DNA FP	FGF22 binding
CCCCn1nnnc1C(c1cc2ccccc2o1)N1CCN(c2cc(C)nc3ccccc23)CC1 (stereo unspecified)	-0.6	i
CCC(c1nnnn1-c1ccc2c(c1)OCCO2)N1CCN(c2ccc(OC)cc2)CC1 (stereo unspecified)	13	i
CCN(CC)C(=O)C(C)N1c2cccc3cccc(c23)S1(=O)=O (stereo unspecified)	-0.8	i
CCc1nc2c(OCC(=O)N3CCOCC3)cccn2c1N(C=O)Cc1ccccc1	4.8	i
CCCCNC(=O)C[C@@H]1C[C@@]2(C(=O)OCC)CCC=C2N(Cc2ccco2)C1=O	2.6	i
O=c1c2ccc(F)cc2sn1-c1ccccc1	29*	i
NC(=O)c1nc2c([nH]c1=O)CCCC2	-3.2	i
O=C(Nc1ccccc1)c1cc(C2CCCCN2C(=O)c2ccc3c(c2)CCO3)on1 (stereo unspecified)	0.4	i
CCc1nc2ccc(C(=O)NCCN3CCCC3)cn2c1N(C)Cc1ccc(OC)cc1	-0.5	i
CC(C)(C)C(=O)c1c(N)[nH]c(C(=O)c2ccccc2)c1-c1cc2ccccc2nc1Cl	2.8	i
CCOC(=O)C1=CCN(S(=O)(=O)c2ccc(C)cc2)C1c1ccccc1F (stereo unspecified)	2.5	i
CCCCNC(=O)C1(C)CCN1Cc1ccc(C#N)cc1 (stereo unspecified)	0.2	i
COc1ccc(CNC(=O)CC[C@H]2O[C@@H](n3cc(C)c(=O)[nH]c3=O)C[C@@H]2O)cc1	1.8	i
C[C@@H]1CN([C@@H](C)CO)C(=O)CCCn2nncc2CO[C@H]1CN(C)Cc1ccc(-c2ccccc2)cc1	2.6	i
COc1ccc(-c2nc3cc(C)c(Br)c(C)n3c2Cc2ccccc2C(F)(F)F)cc1OC	-0.7	i
CC(C)Oc1ccc(CN2CCC2(C)C(=O)NCc2cccc3ccccc23)cc1 (stereo unspecified)	2.9	i
C[C@@H]1CCCCO[C@H](CN(C)C(=O)Nc2ccc(C(F)(F)F)cc2)[C@@H](C)CN([C@H](C)CO)C(=O)c2cc(NC(=O)Nc3ccc4c(c3)OCO4)ccc2O1	-0.2	i
NC(=Nc1c([N+](=O)[O-])cnc2ccccc12)N1CCOCC1	-1.5	i
CC(C)Oc1ccc(S(=O)(=O)N2CCOCC2)cc1NC(=O)CSC(=S)N1CCCC1	3.3	i
CNc1cccc(-c2c(OC)cccc2OC)n1	2.5	i
O=C(O)c1ccc(CNC(=O)C2CCN(S(=O)(=O)c3cccs3)CC2)cc1	-0.8	i
COc1cc(CNC(=O)Nc2nnc([C@H]3C[C@H](O)[C@@H](CO)O3)s2)cc(OC)c1OC	2.4	i
Cn1c(=O)cc(OCCCC(=O)Nc2cccc(Cl)c2)c2ccccc21	-0.5	i
O=C(NC1CCCCC1)C1c2ccccc2OCC(=O)N1Cc1ccccn1 (stereo unspecified)	-0.8	i
COCC(=O)N1C[C@H](C)[C@H](OC)CN(C)C(=O)c2cc(NC(=O)Nc3cccc(F)c3)ccc2OC[C@@H]1C	2.6	i
Next records.
SMILES	HNF4A DNA FP	FGF22 binding
CC(=O)C1=CCC(c2ccc(C)cc2)N(S(=O)(=O)c2ccc(C)cc2)C1 (stereo unspecified)	6.7	i
CC(C)C[C@@H](CN1CCCC1CN1C(=S)NC[C@@H]1Cc1ccccc1)N1C[C@H](Cc2ccccc2)N(CC2CCCCC2)C1=S (stereo partly specified)	-1.5	i
CC(N)c1csc(Nc2nncc3ccccc23)n1 (stereo unspecified)	-2.3	i
CN(C)CCNC(=O)C1(C)Cc2c(-c3cccc(C(F)(F)F)c3)ccnc2O1 (stereo unspecified)	-3.3	i
Clc1ccc2nc(C3CCCCC3)c(Cc3ccccc3)n2c1	-4.8	i
C#CCN(C[C@H]1[C@H](OC(=O)NCc2ccc(OC)c(OC)c2)[C@H](OC(=O)NCc2ccc(OC)c(OC)c2)C[C@@H](C(=O)OC)[C@H]1C(=O)OC)S(=O)(=O)c1ccc(C)cc1	2.2	i
CC(C)NC(=O)N(C)C[C@H]1Oc2ncc(Br)cc2C(=O)N([C@H](C)CO)C[C@@H]1C	0.1	i
COc1cccc(CNC(=O)[C@@H]2CCCN2C(=O)[C@@H]2CCCN2C(=O)c2cccs2)c1	-3.0	i
CCN(CC)C(=O)C1=C(C)N(Cc2ccc(C(C)(C)C)cc2)C(=O)C(CC(=O)NCc2ccco2)C1 (stereo unspecified)	1.6	i
COc1ccc(NC(=O)N(C)C[C@H]2Oc3ncc(C#C[C@@H](C)O)cc3C(=O)N([C@H](C)CO)C[C@H]2C)cc1	-7.8	i
CC(C)(C)S(=O)(=O)N1C[C@H]2CC/C=C\C/C=C\2[C@@H]1CCO	0.8	i
COC(=O)[C@]12CCCCC=C1N(Cc1cccc3ccccc13)C(=O)[C@H](CC(=O)N1CCOCC1)C2	1.6	i
C#CCN(C[C@@H]1[C@@H](OC(=O)NCCCCCC)[C@@H](OC(=O)NCCCCCC)Cn2c(=O)ccc(=O)n21)S(=O)(=O)c1ccc(C)cc1	-2.2	i
CCCCN1C(=O)C(CC(=O)NC2CCCCC2)CC(C(=O)N(C(C)C)C(C)C)=C1C (stereo unspecified)	-0.3	i
CC1(Cc2ccc(Cl)cc2)C(=O)Nc2ccc(-c3ccc(F)c(Cl)c3)cc21 (stereo unspecified)	0.1	i
CC1(C(=O)NCC2CCCCC2)CCN1CCc1ccccc1 (stereo unspecified)	0.1	i
CC(=O)c1cccc(NC(=O)c2cccc3c(-c4cnn(C)c4)coc23)c1	1.1	i
COc1ccc(CC(N)c2csc(NC(=O)Nc3cccc(C(F)(F)F)c3)n2)cc1 (stereo unspecified)	3.0	i
CS(=O)(=O)c1cc(C(=O)O)cc(NCc2ccccc2)c1Oc1ccccc1	2.9	i
CN1CCC(N2CCN(C3CN(C4CCCCC4)S(=O)(=O)C3)CC2)CC1 (stereo unspecified)	1.3	i
O=C(CC[C@H]1O[C@@H](n2cnc3c(NC(=O)c4ccccc4)ncnc32)[C@H](O)[C@@H]1O)NCCCN1CCOCC1	-3.0	i
CC1(C(=O)Nc2ccccc2)Cc2c(-c3cccc(C(F)(F)F)c3)ccnc2O1 (stereo unspecified)	1.5	i
O=C(c1ccco1)N1CCN(C2CN(CCc3ccccc3)S(=O)(=O)C2)CC1 (stereo unspecified)	-1.4	i
Oc1cccc(-c2sc3ccccc3c2-c2ccc(OCCN3CCCCC3)cc2)c1	3.9	i
CC(C)n1c(=O)c2ccccc2n1C(=O)c1ccccc1	0.6	i
Other compounds
SMILES	HNF4A DNA FP	FGF22 binding
Cc1ccccc1S(=O)(=O)NC(=O)C1(C)CCN1C(=O)C1CCCCC1 (stereo unspecified)	-1.4	i
Cc1c(CC(=O)N2CCC(O)CC2)c(=O)oc2cc3c(cc12)CCC1(CCCCC1)O3	3.9	i
Cn1c(=O)c2cc(NC(=O)Cc3ccccc3F)ccc2n1C/C=C/c1ccccc1	3.7	i
O=C1CCCC[C@@H](O)[C@H](O)C[C@H](c2ccccc2)O1	1.5	i
COc1cc(C(O)c2nc(-c3ccccc3)cs2)ccc1F (stereo unspecified)	-2.0	i
CC(=O)Nc1ccc(C(=O)N2CCCCC2c2cc(C(=O)NCc3cccnc3)no2)cc1 (stereo unspecified)	-1.8	i
C[C@H](c1ccccc1)N1C[C@@H](COCc2ccccc2)Oc2cc(N3CC[C@H](O)C3)ccc2S1(=O)=O	-1.5	i
COc1cccc(CN(C)CCCn2cnc3c(OC)ncnc32)c1	-1.9	i
Cc1ccc(S(=O)(=O)N2C[C@@]3(O)Cn4c(=O)ccc(=O)n4C[C@@]3(OC(=O)NCc3ccccc3F)C2)cc1	2.1	i
Nc1nc2c(ncn2[C@@H]2O[C@H](CNS(=O)(=O)N3CCc4ccccc4C3)[C@@H](O)[C@H]2O)c(=O)[nH]1	-1.3	i
COc1ccccc1CNc1nc(NCc2cccc(OC)c2OC)c2sccc2n1	1.4	i
CC(=NOC(=O)C1CCCCC1)c1nccs1	2.5	i
CCOC(=O)[C@]12Cc3c(cc(OC)c(OC)c3OC)[C@H]1N(Cc1ccccc1)C(=O)c1cc(OC)ccc12	4.6	i
C[C@@H]1CN([C@H](C)CO)C(=O)c2cc(Br)cnc2O[C@H]1CN(C)C(=O)Cc1ccccc1	-4.4	i
CN(Cc1ccccc1)C(=O)c1ccc2sc([C@H]3C[C@H](O)[C@@H](CO)O3)nc2c1	0.6	i
CCOC(=O)[C@]12CCCC=C1N(CCC1=CCCCC1)C(=O)[C@H](CC(=O)NCCCN1CCCC1=O)C2	3.9	i
Cc1ccc(-c2nc3ccc(Br)cn3c2CC(C)(C)C)cc1	2.6	i
CCCCCCCCN1C(=O)[C@H](CC(=O)N2CCN(C(=O)OCC)CC2)C[C@@]2(C(=O)OC)CCCCC=C12	-0.5	i
CC(C)Oc1ccc(S(=O)(=O)N2CCOCC2)cc1NC(=O)CSc1nnc(C2CC2)n1C	2.4	i
CCCCNc1nc(NCc2ccccc2)nc2ccccc12	2.3	/
OC[C@@H]1CN(Cc2ccco2)C[C@H](n2cnc3c(NC4CC4)ncnc32)O1	0.1	i
O=c1ccn([C@@H]2O[C@H](CNCc3cccn3-c3ccncc3)[C@@H](O)[C@H]2O)c(=O)[nH]1	-2.6	i
CC1(C(=O)NS(=O)(=O)c2ccccc2Cl)CCN1C(=O)CC1CC1 (stereo unspecified)	2.0	i

Some of the entries so far, with bars between the fields.
Molecule | HNF4A DNA FP | FGF22 binding
COc1ccccc1CNc1nc(NCc2cccc(OC)c2OC)c2sccc2n1 | 1.4 | i
Cc1ccc(S(=O)(=O)N2C[C@@]3(O)Cn4c(=O)ccc(=O)n4C[C@@]3(OC(=O)NCc3ccccc3F)C2)cc1 | 2.1 | i
CC(C)Oc1ccc(S(=O)(=O)N2CCOCC2)cc1NC(=O)CSc1nnc(C2CC2)n1C | 2.4 | i
CCCCNc1nc(NCc2ccccc2)nc2ccccc12 | 2.3 | /

Assay outcomes: PubChem BioAssay, several laboratories
